High-throughput results (PubChem)
D2 ag: activates the human D2 dopamine receptor | AID 624465 | 360,000 compounds, 0.084% hits | DiscoveRx PathHunter D2 beta-arrestin, luminescence, 90 min; 100% = 57 uM dopamine signal | activation, % (concentration not given with the values); in the data active = activation above about 40%; inconclusive = about 15% to 40%; inactive = below about 15%; note: the text of the record calls up to 30% inactive
Target sequence (P14416 whole entry, looked up): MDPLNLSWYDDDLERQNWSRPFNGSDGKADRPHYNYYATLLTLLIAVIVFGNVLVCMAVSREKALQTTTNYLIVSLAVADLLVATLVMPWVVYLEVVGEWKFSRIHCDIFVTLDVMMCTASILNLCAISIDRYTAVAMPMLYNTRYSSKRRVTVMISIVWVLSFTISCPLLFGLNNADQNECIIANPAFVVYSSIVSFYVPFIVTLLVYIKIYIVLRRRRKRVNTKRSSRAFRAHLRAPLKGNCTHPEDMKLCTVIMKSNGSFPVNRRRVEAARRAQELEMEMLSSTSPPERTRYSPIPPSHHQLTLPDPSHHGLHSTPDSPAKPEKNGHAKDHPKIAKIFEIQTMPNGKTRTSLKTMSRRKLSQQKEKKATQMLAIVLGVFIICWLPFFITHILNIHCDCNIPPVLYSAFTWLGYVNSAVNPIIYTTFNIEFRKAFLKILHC
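DiscoveRx PathHunter D2 beta-arrestin cells (2,100/well) attached overnight, then compound-stimulated 90 min at 37 C in HBSS/10 mM HEPES/0.1% Tween-20 buffer; beta-galactosidase complementation read by luminescence after 1 h at ambient temperature. Dopamine 57 uM final (EC100) as control.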
TRPML1 blocker: human mucolipin-1 channel inhibition. TRPML1-inducible cells, Ca2+ dye fluorescence, FDSS; hits give low values; inhibition of EC80 agonist-evoked calcium signal. 390,000 compounds, 0.02% hits. activity change, negative = inhibition, % (no concentration beside the values); in the data active means activity change below about -50%; inconclusive means about -30% to -50%; inactive means above about -30%;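 note: stimulus is agonist 54-4 at its EC80 concentration; % is set by controls: 0 for no effect and ±100 for the full control effect; compound concentration not given in the record; the text of the record puts the active cut at -80%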
Target sequence (Q9GZU1 whole entry, looked up): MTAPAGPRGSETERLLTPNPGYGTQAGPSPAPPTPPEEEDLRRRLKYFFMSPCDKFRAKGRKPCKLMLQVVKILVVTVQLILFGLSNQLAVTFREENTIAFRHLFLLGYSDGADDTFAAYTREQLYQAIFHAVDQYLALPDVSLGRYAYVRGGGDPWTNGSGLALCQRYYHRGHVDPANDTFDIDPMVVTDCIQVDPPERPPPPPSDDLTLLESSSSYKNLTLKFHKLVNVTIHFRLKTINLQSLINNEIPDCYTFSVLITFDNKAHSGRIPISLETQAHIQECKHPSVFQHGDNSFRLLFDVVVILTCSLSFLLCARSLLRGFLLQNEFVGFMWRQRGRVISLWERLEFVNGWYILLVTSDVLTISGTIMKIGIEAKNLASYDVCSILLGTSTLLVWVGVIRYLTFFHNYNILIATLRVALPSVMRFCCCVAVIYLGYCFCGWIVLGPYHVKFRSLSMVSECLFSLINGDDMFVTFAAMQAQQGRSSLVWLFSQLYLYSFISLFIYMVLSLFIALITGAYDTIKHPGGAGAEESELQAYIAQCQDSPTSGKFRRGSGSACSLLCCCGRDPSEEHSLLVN
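Calcium fluorescence in TRPML1-DL cells induced overnight with Tet: a 110 s read after compound pin addition, then a 110 s antagonist read after challenge with 54-4 at 4 uM final (EC80).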
PINK1 modulator: PINK1 expression modulation. Potency, µM (doses to about 76.6 µM), for inactives: top-dose activation (PINK1 increase), usual class: activators. 410,000 compounds, 0.2% hits. PINK1 immunofluorescence, high-content cytometry, 24 h; active = well fitted activation curve with a large enough effect; inconclusive = small, poorly fitted or top-dose-only effect; inactive = flat fitted curve, though single readings scatter; cell line not stated here;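 note: potency is the fitted concentration of half-maximal effect; % of control where 0% means no effect; nearly all actives have a fitted effect of over 65% in size; a mitochondrial uncoupler was the plate control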
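Cells are seeded, rested 12 hours, then given compound at five concentrations or DMSO for 24 hours. After fixation, blocking and antibody staining, PINK1 amount and mitochondrial localization are scored; CCCP serves as control.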
TRPML1 ag: activates the human TRPML1 channel; Q9GZU1; TRPML1-expressing cells, Ca2+ dye fluorescence, FDSS; host cell line not named in the record; reference of the full effect not given here; activation, % (concentration not given with the values); 410,000 compounds, 0.12% hits; in the data active = activation above about 50%; inconclusive = about 30% to 50%; inactive = below about 30%; note: 0% is about no effect; the text of the record puts the active cut at 80%
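Cells: TRPML1-DL, 1X Tet inducer, ~16 h at 37 degrees C/5% CO2. Dye: ABD Ca8 no-wash + quencher, 45-90 min RT. Read: 10 s baseline, compound add, 110 s agonist phase; 54-4 EC80 (4uM final), 110 s antagonist phase.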
D2 PAM: potentiates the human D2 dopamine receptor allosterically. 360,000 compounds, 0.23% hits. AID 624464. DiscoveRx D2 beta-arrestin cells, luminescence, 90 min; 100% = 57 uM dopamine signal. potentiation, % (concentration not given with the values); active = potentiation of 50% or more; inconclusive = 30% to 50%; inactive = 30% or less;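 note: tested on top of an EC20 dose of dopamine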
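PathHunter beta-arrestin assay in DiscoveRx D2 cells. Compounds were added with an EC20 of dopamine (50 nM final) for 90 min at 37 deg C. Luminescence was read 1 h after detection reagent, with 57 uM dopamine as the EC100 control.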
Six1-Eya2 inh: Six1/Eya2 interaction inhibition; AlphaScreen GST-Six1/His-Eya2 binding, biochemical; hits give low values; control for the full effect not named in the record; Q15475+O00167; 360,000 compounds, 0.56% hits; activity change, % (no concentration beside the values); in the data active = activity change below about -65%; inconclusive = about -30% to -65%; inactive = above about -30%; note: % is set by controls: 0 for no effect and ±100 for the full control effect
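Six1/Eya2 binding was read as AlphaScreen signal after compounds were pinned into GST-Six1 plus His-tagged Eya2 (5X stock 250/500 nM) in pH 8.0 Tris/NaCl/TCEP buffer, beads added, then incubated 1 h, 37 C, dark.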
The depositor's hits bear a star; ? = inconclusive; / = not tested or not shown; [ ] = dose if it differs, or a comment. Rows were taken by chance (roughly 1% active in at least one column).

SMILES	D2 ag	TRPML1 blocker	PINK1 modulator	TRPML1 ag	D2 PAM	Six1-Eya2 inh
CCCS(=O)(=O)NC(=O)C1(C)CCN(C(=O)c2ccc(OC(F)F)cc2)C1 (configuration not stated)	-3.9	/	0.7%	-0.3	-2.7	0.8
O=[N+]([O-])c1cc(Cc2ccccc2)cc(C=Nc2ccc(N3CCOCC3)cc2)c1O	0.3	-3.0	0.0%	0.5	5.9	-15.3
COc1ccc(CN(CC(=O)NC2CCCCC2)C(=O)CCC(=O)Nc2nccs2)cc1	3.0	-3.4	4.6%	-0.5	-1.8	5.3
CCCNC(=S)Nc1ccc(F)cc1F	-2.9	-0.4	1.7%	-0.4	-2.9	-16.5
CS(=O)(=O)c1ccc(N)c(SSc2cc(S(C)(=O)=O)ccc2N)c1	-0.6	-10.3	-1.4%	-0.5	-0.4	-9.7
CCOc1cccc(C(=O)Nc2nc(-c3ccc(S(=O)(=O)N4CCOCC4)cc3)cs2)c1	-2.7	8.9	22.6%	1.2	15.9	?
Cc1cc(-c2cc(-c3ccc(Cl)cc3)nc(N)c2C#N)co1	3.8	-7.0	8.0%	0.0	-19.9	-11.2
O=C(Cn1cnc2c(nnn2Cc2ccc(Cl)cc2)c1=O)NCC1CCCO1 (configuration not stated)	1.7	24.9	-3.9%[38.3 µM]	0.3	-6.3	0.6
Cc1nc(N2CCOCC2)c2c(C(=O)N(C)c3ccccc3)c(C)oc2n1	/	9.1	-0.2%	-0.4	/	/
COc1cc(/C=N/N2CCCCC2)cc([N+](=O)[O-])c1O	-8.2	-13.5	1.2%	-0.2	-7.6	-14.8
CCOC(CNc1ncnc2c1cnn2C)OCC	0.4	-19.2	0.3%	0.9	-1.6	5.2
Cc1cccc(-c2nc(CS(=O)CC(=O)NCc3ccc(Cl)cc3)c(C)o2)c1 (configuration not stated)	/	19.9	0.0%	0.2	/	/
CCN(c1ccccc1)S(=O)(=O)c1ccc(C(=O)NCCCN2CCOCC2)cc1	2.0	1.1	-0.1%	2.8	-1.7	3.5
Cc1ccc(-n2nnnc2-c2cccc(C)c2)cc1	2.2	-14.8	2.2%	-0.1	5.0	7.8
O=C(CSc1nnc(-c2ccncc2)o1)Nc1cccc(Cl)c1	1.1	-8.0	1.2%	0.4	-3.0	-1.8
Nn1c(SCc2ccc(Br)cc2)nnc1-c1cccnc1	4.5	-11.9	-0.2%	0.8	3.9	24.1
COc1ccc(-c2n[nH]c(=S)o2)c(OC)c1	1.5	-8.2	-0.5%	-0.8	-17.8	-7.6
CCOC(=O)N(O)c1ccc(C=Cc2ccccc2)cc1	6.1	4.7	-6.1%	1.2	3.5	-19.6
C/C=C/C=N/NC(=O)CN(c1ccc(Br)cc1)S(=O)(=O)c1ccccc1	-2.6	4.4	1.9%	0.7	-0.3	0.5
C[C@@H]1CN([C@H](C)CO)C(=O)c2c(c3ccccc3n2C)-c2ccccc2CO[C@H]1CN(C)Cc1ccc(Oc2ccccc2)cc1	1.7	/	-0.3%	/	/	-14.5
Nc1ccccc1C#Cc1ccc([N+](=O)[O-])cc1	4.4	-1.8	1.1%	0.5	2.7	-9.7
CC1=C(C/C=C(\C)CCCC(C)CCCC(C)CCCC(C)C)C(=O)c2ccccc2C1=O (configuration not stated)	11.2	-17.5	0.3%	0.1	-2.6	0.0
CC(C)C(=O)OCc1cc(=O)n2nc(C3CCCCC3)sc2n1	/	-19.4	-0.7%	-0.6	/	/
O=C1c2cccnc2C(=O)N1Cc1ccc(S(=O)(=O)N2CCOc3ccccc32)cc1	-1.1	3.4	0.3%	1.3	1.0	-7.7
CC(C)c1ccc(C2OC(CCc3ccccc3)Cc3[nH]c(=S)[nH]c(=O)c32)cc1 (configuration not stated)	/	/	0.9%	-0.5	/	-6.6

(next part)
SMILES	D2 ag	TRPML1 blocker	PINK1 modulator	TRPML1 ag	D2 PAM	Six1-Eya2 inh
CC(=O)Nc1ccc(N2CCCCC2)c(C(=O)Nc2cccc(C)c2)c1	-7.7	-1.0	?	-0.3	-27.8	-9.7
CCCN(CCC)S(=O)(=O)c1ccc(NC(=O)Cc2cccs2)cc1	-2.9	-5.6	3.1%[38.3 µM]	0.8	-9.7	2.6
OC1CCCN(Cc2ccc3c(c2)Cc2ccccc2-3)C1 (configuration not stated)	-3.6	-1.0	4.9%[38.3 µM]	-0.5	-13.2	-0.6
CCCCN1CC(COCc2ccccc2)Oc2cccc(Oc3ccc(OC)cc3)c2S1(=O)=O (configuration not stated)	0.4	-6.3	1.6%	0.3	-10.2	3.4
COc1ccccc1-n1c(SCC(=O)NC2CCS(=O)(=O)C2)nc2cc([N+](=O)[O-])ccc21 (configuration not stated)	-0.1	-2.4	1.3%	0.7	-1.4	-1.4
Cc1ccc2oc(=O)c3cnn(CC(=O)N(CCC(C)C)Cc4ccco4)c3c2c1	-3.5	17.8	8.4%	0.8	4.2	-0.3
COc1ccc(S(=O)(=O)N2CCN(CC(=O)N3CCc4ccccc4C3)CC2)cc1OC	-0.4	34.2	1.1%	-0.1	1.7	-1.1
CC(Sc1nnc(-c2ccc(Cl)cc2Cl)n1Cc1ccccc1)C(=O)Nc1nccs1 (configuration not stated)	-4.0	4.9	-0.9%	-0.4	7.7	-5.4
COc1ccc(C2CC(c3ccc(C)cc3)Nc3ncnn32)cc1 (configuration not stated)	-1.9	2.2	0.1%	2.4	-3.1	-4.9
CCC1CO/C(=C(\C(=C(Cl)Cl)N2CCOCC2)[N+](=O)[O-])N1 (configuration not stated)	0.3	-8.5	0.0%	-0.7	-12.4	-1.7
O=C(Nc1nnc(SCCC2OCCO2)s1)C1CC(=O)N(c2ccc(F)cc2)C1 (configuration not stated)	-1.1	7.5	1.7%	0.1	7.4	-6.6
CCOc1ccc(C(CC(=O)O)NC(=O)C23CC4CC(CC(C4)C2)C3)cc1 (configuration not stated)	-1.8	-9.7	3.4%[38.3 µM]	0.1	-6.5	0.0
CCN(CC)CCNC(=S)Nc1ccc2nc(N3CCN(CC)CC3)cc(C)c2c1	-3.3	-11.8	1.8%	-0.4	-34.7	-3.9
Cc1cccc(-n2ncc3c(NC4CCCCC4)ncnc32)c1	1.3	20.1	9.2%	0.7	-1.9	-2.4
Cc1cccc(OCC(=O)Nc2nc3ccc([N+](=O)[O-])cc3s2)c1	-5.3	0.9	/	-0.2	-4.7	-1.2
Cc1c(C(C)C)c(=O)n(-c2ccc(S(=O)(=O)NC(C)C)cc2)n1C	-2.4	16.2	0.7%	-0.1	-2.6	1.7
COc1ccc(OC)c(N(CC(=O)NCCc2ccc(OC)c(OC)c2)S(=O)(=O)c2ccccc2)c1	2.0	-2.7	1.9%	-0.6	-14.5	-1.1
CC(OC(=O)c1ccc(F)c(S(=O)(=O)N2CCOCC2)c1)C(=O)NCC1CCCCC1 (configuration not stated)	-1.5	-22.1	0.1%	-0.5	-1.8	41.8
CCCCCCn1ccc(=N)cc1	-4.0	7.3	2.0%	-0.6	-6.7	5.4
C#CC1CN(Cc2ccccc2)CC(C#C)N1C (configuration not stated)	-1.0	-16.5	-0.3%	2.3	-1.9	-9.5
Clc1ccc(-c2cc3nc(NCc4cccc(Cl)c4)ccn3n2)cc1	?	/	2.4%	0.2	8.8	-2.1
COCCOC(=O)/C(=C/c1ccc(OC(=O)c2ccccc2)cc1)C(C)=O	-0.4	10.2	1.9%	0.7	-16.2	?
O=C(CN1C(=O)CSc2ccc(S(=O)(=O)N3CCOCC3)cc21)NCCc1ccccc1	-10.3	-0.2	1.7%	-0.6	-11.2	1.7
O=C(O)c1cc(-n2nnnc2SCc2ccccc2F)ccc1Cl	4.1	-1.7	0.8%	0.6	-19.7	-3.2
COC(=O)CCc1c(C)nc(N)[nH]c1=O	-1.9	-6.1	0.4%	-0.8	2.5	-0.6

New compounds follow.
SMILES	D2 ag	TRPML1 blocker	PINK1 modulator	TRPML1 ag	D2 PAM	Six1-Eya2 inh
COC(C(=O)Nc1ccc(F)c(F)c1)c1ccccc1 (configuration not stated)	1.0	-2.1	/	-0.3	-2.1	5.4
O=C(Cn1c(=O)n(CC2CCC(C(=O)NCCc3ccccc3)CC2)c(=O)c2ccccc21)Nc1ccccc1 (configuration not stated)	/	-4.7	0.7%	2.9	/	/
C#CC[N+](C)(C)CC#Cc1ccc(Cl)cc1	-2.4	14.8	1.2%	-0.2	-14.0	-5.3
Cc1cccc(N2CCN(C(=O)c3ccc4c(c3)CCN4S(=O)(=O)c3ccccc3)CC2)c1C	/	31.8	2.5%	0.5	/	/
CCOCc1nnc(NC(=O)c2cc(C(=O)OC)cc([N+](=O)[O-])c2)s1	-3.2	-10.0	-1.5%	-0.5	-6.3	8.5
Cc1cccc(-c2nc(CSCC(=O)N3CCN(c4cccc(C)c4C)CC3)c(C)o2)c1	/	3.7	0.2%	0.5	/	/
CC(=O)Nc1ccc(NC(=O)CCN2C(=O)C3CC=CCC3C2=O)cc1 (configuration not stated)	-1.8	-5.7	0.3%	-0.1	-3.9	-5.0
C=CCC[C@H](Cc1ccc(F)cc1)C(=O)OC[C@@H](C)NC(=O)[C@H](CC=C)CC(=O)N(CCO)Cc1ccccc1	1.1	3.1	6.9%	0.0	/	-0.7
c1ccc(-c2nc3c([nH]2)CCc2nonc2-3)cc1	-3.0	7.4	-0.9%	-0.1	-7.7	-4.6
COc1ccc(Br)cc1/C=N/NC(=O)CN1CCN(Cc2ccccc2)CC1	-3.9	-0.1	4.2%	0.8	-14.2	-20.1
Cc1ccc(Cl)cc1NC(=O)COC(=O)C1CCCC1	-1.6	20.3	2.0%	-1.8	-16.0	3.8
CCC(=O)N(CCc1ccc(S(N)(=O)=O)cc1)C1CC(=O)N(c2ccc(OC)cc2)C1=O (configuration not stated)	-2.6	-21.2	-0.8%	1.5	6.4	21.9
COc1oc(-c2ccccc2C)nc1C(F)(F)F	-1.3	34.3	0.3%	2.2	-10.0	2.8
C/C(=N\NC(=O)C(=O)Nc1cc(C)ccc1C)c1ccncc1	-4.4	-1.0	5.5%	-0.6	-16.6	9.5
CC(=O)N1CCN(S(=O)(=O)c2ccc(S(=O)(=O)NC3CC3)cc2)CC1	-2.4	10.2	-1.2%[38.3 µM]	-0.6	9.6	24.9
CSc1cccc(Nc2cc(C(=O)NCCc3ccc(Cl)cc3)c3ccccc3n2)c1	/	1.5	0.8%	0.5	/	/
O=C(Nc1ccc(Br)cc1)C1CCCN1S(=O)(=O)c1ccc(F)cc1 (configuration not stated)	/	30.1	1.6%	3.3	/	/
Cc1ccc2nc(C)cc(Nc3ccc([N+](=O)[O-])cc3)c2c1	-4.7	1.8	12.3%	1.8	-8.5	-2.0

Compound profiles (already shown). Order of values: D2 ag, TRPML1 blocker, PINK1 modulator, TRPML1 ag, D2 PAM, Six1-Eya2 inh
Cc1c(C(C)C)c(=O)n(-c2ccc(S(=O)(=O)NC(C)C)cc2)n1C is listed with -2.4, 16.2, 0.7%, -0.1, -2.6, 1.7
CC(C)c1ccc(C2OC(CCc3ccccc3)Cc3[nH]c(=S)[nH]c(=O)c32)cc1 (configuration not stated) is listed with /, /, 0.9%, -0.5, /, -6.6
CCC(=O)N(CCc1ccc(S(N)(=O)=O)cc1)C1CC(=O)N(c2ccc(OC)cc2)C1=O (configuration not stated) is listed with -2.6, -21.2, -0.8%, 1.5, 6.4, 21.9
